Source: PubChem
VACV Venus inh: qHTS for Stage-Specific Inhibitors of Vaccinia Orthopoxvirus: Venus Reporter Primary qHTS | hit rate 0.46% among 330,000 | Vaccinia virus Venus reporter expression, fluorescence | Potency, µM (series often up to 36.5 µM), for the others: at the highest dose activity change, negative = inhibition, hits mostly inhibitors; active means well fitted inhibition curve with a large enough effect; inconclusive means small, poorly fitted or top-dose-only effect; inactive means no such curve, though single readings can be large or run the other way; tested in A549 cells; note: nearly all actives have a fitted effect of over 30% in size; inactives centre near -10
Vaccinia mCherry: qHTS for Stage-Specific Inhibitors of Vaccinia Orthopoxvirus: mCherry Reporter Primary qHTS. Vaccinia virus mCherry reporter infection, fluorescence; about a quarter of the inactives have no number. Potency, µM (titrated, usually from 36.5 µM), without a hit: top-dose activity change, negative = inhibition, hits mostly inhibitors. hit rate 0.63% among 310,000; active = well fitted inhibition curve with a large enough effect; inconclusive = small, poorly fitted or top-dose-only effect; inactive = no such curve, though single readings can be large or run the other way; tested in A549 cells; note: nearly all actives have a fitted effect of over 35% in size; inactives centre near -10
An asterisk follows results filed as active; i = inactive; ? = inconclusive; · = not tested or not shown; & = joins results of further samples; [ ] = remark or other dose. % is set by controls: 0 for no effect and ±100 for the full control effect; potency is the fitted concentration of half-maximal effect. This is a random part of the collection; overall some 0.82% were active at least once.

SMILES	VACV Venus inh	Vaccinia mCherry
O=C1c2oc3ccccc3c(=O)c2C(c2ccccc2F)N1Cc1ccc2c(c1)OCO2 (stereo unspecified)	-7.9%	0.5%
CC(C)CCc1noc(CN2CCC(CCN3CCCC3=O)CC2)n1	-2.3%	1.0%
CN1C[C@@H]2[C@@H]3C(=O)N(Cc4ccccc4)C(=O)[C@@H]3[C@](Cc3ccccc3)(C1=O)N2C(=O)c1ccc(Cl)c(Cl)c1	-29.6%	-3.3%
O=c1cc(NCC2CCCO2)[nH]c(=O)n1-c1ccc(Cl)cc1 (stereo unspecified)	-17.7%	i
CCCS(=O)(=O)N1CCC(C(=O)N2CCOCC2)CC1	16.2%	·
Cc1nc(NC(=O)c2ccc(Br)o2)sc1C	-1.5%	-1.6%
O=C1NC(=Nc2ccccc2)SC1(CO)CO	-11.0%	i
Cc1ccc(S(=O)(=O)N2CCC(=O)N(C(COCc3ccc(Cl)cc3)C(C)C)CC2)cc1 (stereo unspecified)	-15.4%	-0.7%
CC(Cc1ccccc1)NC(=O)c1ccc(N)cc1 (stereo unspecified)	-4.8%	-13.3%
COc1ccc(-c2cc(C(F)(F)F)n3nc(C(=O)N4CCCCC4)cc3n2)cc1OC	-13.4%	-21.4%

Given field by field: entries from further up
Compound: O=c1cc(NCC2CCCO2)[nH]c(=O)n1-c1ccc(Cl)cc1 (stereo unspecified)
  VACV Venus inh: -17.7%
  Vaccinia mCherry: i

Compound: O=C1c2oc3ccccc3c(=O)c2C(c2ccccc2F)N1Cc1ccc2c(c1)OCO2 (stereo unspecified)
  VACV Venus inh: -7.9%
  Vaccinia mCherry: 0.5%

Compound: CC(C)CCc1noc(CN2CCC(CCN3CCCC3=O)CC2)n1
  VACV Venus inh: -2.3%
  Vaccinia mCherry: 1.0%

Compound: COc1ccc(-c2cc(C(F)(F)F)n3nc(C(=O)N4CCCCC4)cc3n2)cc1OC
  VACV Venus inh: -13.4%
  Vaccinia mCherry: -21.4%

Next records follow.
SMILES	VACV Venus inh	Vaccinia mCherry
O=C(CSc1nnc(CNC(=O)c2c(F)cccc2Cl)o1)NCc1ccc(F)cc1	-19.0%	-3.9%
O=C(CC(=O)OCc1ccccc1)OCc1ccccc1	8.5%	52.9%[activator]
O=C(C[n+]1ccc(C(=O)NCc2ccccc2)cc1)c1ccc(F)cc1	-7.0%	-12.0%
CCOc1ccc(Cl)cc1-c1cc(C(=O)NCC2CCCCC2)[nH]n1	?	?
O=C(COc1ccccc1)N/N=C/c1ccc(O[C@@H]2O[C@H](CO)[C@@H](O)[C@H](O)[C@H]2O)cc1	-1.1%	i
Cc1cccc(NC(=O)CSc2nnnn2C)n1	-9.1%	?
CCOC(=O)C1CCCN(S(=O)(=O)c2cccc3nsnc23)C1 (stereo unspecified)	-9.5%	-2.1%
CC(=O)Nc1ccc(/C=C/C(=O)c2ccc3c(c2)OCCO3)cc1	-20.4%	?
CC(=O)Nc1ccc(NC(=O)CSc2nnc3ccc(-c4ccccn4)nn23)cc1	2.5%	-12.3%
CC[C@@H]1C/C=C\Cc2ccccc2[C@@H](C(=O)C[C@@H](O)CC(C)=O)OC1=O	-9.7%	i

Entries of single compounds, quoted from the list. Order of screens: VACV Venus inh | Vaccinia mCherry
Listed for O=C(CSc1nnc(CNC(=O)c2c(F)cccc2Cl)o1)NCc1ccc(F)cc1 = -19.0% | -3.9%
Listed for Cc1cccc(NC(=O)CSc2nnnn2C)n1 = -9.1% | ?

Further records:
SMILES	VACV Venus inh	Vaccinia mCherry
O=C(NCc1ccccc1)c1ccc(S(=O)(=O)NCc2ccco2)cc1	-2.4%	i
CN(C)CCN1CCN(c2cc(-c3cccc(Cl)c3)nc3ccnn23)CC1	-4.5%	-4.4%
Cc1ccc(Cc2c(-c3cccc(Br)c3)nc3c(Cl)cc(C(F)(F)F)cn23)cc1	9.0%	12.0%
O=C1[C@H](Cc2ccccc2)NCCCC[C@@H](c2ccc(Cl)cc2)N1Cc1ccccc1	?	?
COC(=O)c1c(NC(=O)C(C)(C)C)sc2c1C(C(=O)OC)CC2 (stereo unspecified)	-13.7%	i
CCCSc1ncc(Cl)c(C(=O)Nc2c(C(=O)Nc3ccccc3)oc3ccccc23)n1	-0.5%	-5.4%
COc1ccc(NS(=O)(=O)c2cc(NC(=O)/C=C/c3ccccc3OC)ccc2N2CCCCC2)cc1	-10.9%	i
O=C(C(=O)N(Cc1ccccc1)Cc1ccccc1)c1c(-c2ccccc2)[nH]c2ccccc12	-7.5%	-9.0%
CC(=O)c1c(C)[nH]c(C(=O)Nc2nc(-c3ccc(Cl)cc3)cs2)c1C	-8.3%	-8.4%
Cc1ccc(C2(C)NC(=O)N(CC(=O)Nc3ccccc3N3CCCC3)C2=O)cc1 (stereo unspecified)	-6.7%	?
CCOC(=O)c1c(NC(=O)C2C3CCC(O3)C2C(=O)O)sc2c1CCC(CC)C2 (stereo unspecified)	-4.6%	-17.9%
CCS(=O)(=O)N1CCN(Cc2ccncc2)CC1	-9.4%	-18.1%
COC(=O)c1cc(NS(=O)(=O)c2ccc(N3CCCCC3)c([N+](=O)[O-])c2)cc(C(=O)OC)c1	-4.0%	·
Cc1nn(-c2nc(-c3ccccc3)cc(C(F)(F)F)n2)c(C)c1Cl	-9.7%	-13.1%
O=C(CC1SC(=O)N(c2ccccc2)C1=O)Nc1ccc(Cl)cc1 (stereo unspecified)	-3.6%	-15.6%
O=C(O)CSc1nc2ccccc2c(=O)[nH]1	-17.2%	-15.0%
Cc1c(C(=O)OC(C)C(C)C[N+](C)(C)C)oc2ccccc12 (stereo unspecified)	-3.9%	i
CN1CCN(CCC(=O)Nc2ccc(Cl)cc2)CC1	-1.3%	0.9%
COC(=O)[C@]1(C)N[C@H](CN(C)C(=O)Nc2ccc(OC)cc2)[C@@H]2C(=O)N(C)C(=O)[C@@H]21	-7.5%	i
Cc1ccccc1C(=O)Nc1nnc(-c2ccco2)o1	-21.7%	?
N#Cc1ccc(C(=O)Nc2nnc(-c3ccccn3)o2)cc1	-12.7%	-13.4%
CCCc1cc(-c2nc(N)ncc2-c2ccc3c(c2)OCCCO3)c(O)cc1OC	12.6µM*	?
Clc1cccc(CSc2ccc(-c3ccco3)nn2)c1	-4.4%	-5.2%
Cc1ccccc1Cn1cc(NC(=O)c2cc3nc(-c4ccco4)cc(C(F)(F)F)n3n2)cn1	-22.0%	?
CCOc1ccc(NC(=O)CN(C)C(=O)c2cc([N+](=O)[O-])ccc2N2CCCCC2)cc1OCC	-26.8%	-14.7%
CCOc1cc(OCC)cc(C(=O)N2CCC[C@@H]2C(=O)N2CCC[C@@H]2C(=O)NCc2ccccc2Cl)c1	1.3%	0.2%
COc1ccc2c(c1)-c1nc(-n3ncc(C(=O)N(C)CC4CCCN(C)C4)c3C)ncc1CC2 (stereo unspecified)	-2.4%	-14.9%
CC(=O)Nc1ccc(S(=O)(=O)NCCC(=O)N2CCC(Cc3ccccc3)CC2)cc1	-23.8%	-7.8%
COC(=O)c1ccccc1NC(=O)c1ncoc1-c1ccco1	?	-25.9%
COc1ccc(NS(=O)(=O)c2cc(NC(=O)c3ccco3)ccc2N2CCCC2)cc1	-7.1%	-17.2%
Cc1ccc(S(=O)(=O)N2CCN(C(=O)C3CCCC3)CC2)cc1C	-2.4%	-2.9%
CCN(CC)C(=O)CSc1nc2ccccc2c(=O)n1CCC(=O)N1CCN(c2ccccc2)CC1	-10.3%	-0.6%
COc1ccc(-n2nnnc2SCC(=O)Nc2nnc(C)s2)cc1	1.5%	-5.3%
CN(C)S(=O)(=O)N(CC(=O)N1CCOCC1)c1ccccc1	-5.5%	-14.7%
COc1ccccc1N(CC(O)CN1C(C)CCCC1C)S(=O)(=O)c1ccccc1 (stereo unspecified)	-4.5%	-5.5%
COc1cccc(NC(=O)CSCc2n[nH]c(=O)[nH]2)c1	-1.3%	-14.7%
O=C(/C=C/c1cc(Br)ccc1O)c1ccco1	-11.8%	?
COc1cccc(C(=O)NCCCNC(=O)c2ccccn2)c1	-0.3%	-7.2%
COC(=O)[C@@H](CC(C)C)N(Cc1ccccc1)S(=O)(=O)N(Cc1ccccc1)[C@@H](CC(C)C)C(=O)OC	-21.4%&-9.9%	i
Cc1ccc(C(=O)COC(=O)CNS(=O)(=O)c2ccc(C)cc2)cc1	-8.6%	i
CC(=O)c1ccc(N/N=C(/C(N)=O)C2=NC(C)(C)Cc3ccccc32)cc1	?	?
Cc1ccc2nc(Cl)c(C3CC(c4cccs4)=NN3C(=O)CCCC(=O)O)cc2c1 (stereo unspecified)	-4.8%	i
O=C(C1=C(O)C(=O)N(Cc2ccco2)C1c1cccc(O)c1)c1ccco1 (stereo unspecified)	4.5%	-4.9%
CCOC(=O)c1ccccc1NC(=O)N1CCC(N2CCN(Cc3ccccc3)C(=O)C2=O)CC1	-2.5%	-4.0%
S=c1[nH]nc(COc2ccc(Cl)cc2)n1-c1ccccc1	-13.8%	i
COc1cccc(C2=CC(c3ccc(OC)c(OC)c3OC)n3nnnc3N2)c1 (stereo unspecified)	-8.7%	·
CCOc1ccccc1NC(=O)N1CCN(S(=O)(=O)c2ccc3c(ccn3C)c2)CC1	-2.5%	-23.5%
COc1ccccc1N1CCN(S(=O)(=O)c2ccc(-c3coc(C)n3)cc2)CC1	-7.5%	-10.5%
CCN(C(=O)c1cc(S(=O)(=O)N2CCOCC2)cn1C)c1cccc(C)c1	-9.7%	i
C=CCn1c(SCC(=O)c2ccc(OC)cc2)nnc1-c1cc2cccc(OC)c2o1	-22.3%	i

The results go on:
| molecule | VACV Venus inh | Vaccinia mCherry |
| --- | --- | --- |
| COc1cc(OC)cc(-c2cc3cc4c(cc3cn2)OCO4)c1 | ? | -17.9% |
| c1coc(-c2nc(N=C3N=c4ccccc4=N3)[nH]c2-c2ccco2)c1 | 4.1% | i |
| COc1ccc(NC(=O)Nc2cccc(Cl)c2Cl)c(OC)n1 | 22.7% | 16.1% |
| O=C1NC[C@H](CCCCN2C[C@H](Cc3ccc(O)cc3)N(CC3CCCCC3)C(=O)C2=O)N(CCC2CCCCC2)C1=O | -6.0% | i |
| COc1ccc2c(n1)Sc1nc3ccccc3nc1N2 | 8.3% | -17.9% |
| COc1cc(C(=O)NCCN2CCOCC2)cc(OC)c1OC | -10.6% | -22.0% |
| O=C(NCC1COc2ccccc2O1)c1cc(S(=O)(=O)N2CCOCC2)ccc1F (stereo unspecified) | -9.4% | -24.6% |
| Cc1c(C(=O)NCCSCc2ccco2)cccc1[N+](=O)[O-] | -17.9% | -24.1% |
| CCc1ccc(NC(=O)C2C3C=CC(C4CC34)C2C(=O)O)cc1 (stereo unspecified) | -11.5% | i |
| Cc1cc(C)cc(-n2c(SCC(=O)Nc3nnc(C)s3)nc3c([nH]c4ccccc43)c2=O)c1 | -7.7% | -10.1% |
| CCCc1cc(=O)[nH]c(SCC(N)=O)n1 | -9.8% | i |
| C[C@]12C=C[C@H](O)CC1=CCC1C2CC[C@@]2(C)C1CCC21OCCO1 (stereo partly specified) | -16.7% | -20.6% |
| CCCC(=O)Nc1cc(OC)c(NC(=S)Nc2ccc(CC)cc2)cc1OC | -1.6% | -15.3% |
| O=C(NC1CCCCCCC1)C1=COCCO1 | -10.8% | -19.4% |
| COc1ccccc1CNc1ncnc2cc(Cl)ccc12 | -9.7% | -17.8% |
| Cn1c(N)c(C(=O)COC(=O)/C=C/c2cccc(F)c2)c(=O)n(C)c1=O | -10.4% | -14.8% |
| NNC(=O)C1CC1c1ccccc1 (stereo unspecified) | -8.0% | i |
| Fc1ccc(-c2nnn(Cc3ccccc3Cl)n2)cc1 | -2.3% | i |
| Cc1ccc(C(=O)O)cc1-c1ccc(C=C2C(=O)c3ccccc3C2=O)o1 | -9.3% | -4.8% |
| CCOC(=O)c1sc(NC(=O)C(CC)Sc2nc3ccccc3[nH]2)nc1C (stereo unspecified) | -23.2% | ? |
| Cc1cc2c(ncn2C)c(NS(=O)(=O)c2ccc(Cl)cc2)c1C | -15.4% | -13.1% |
| Cc1ccccc1NS(=O)(=O)c1ccc(C(=O)N2CCN(c3ccccn3)CC2)cc1 | -15.7% | i |
| CNc1nc(-c2ccccc2OC)nc2ccccc12 | 9.7% | 4.5% |
| CCOC(=O)/C=C1\CC(C(=O)OCC)Oc2ccccc21 (stereo unspecified) | -6.2% | i |
| CNC(=O)/C(=C\c1ccc([N+](=O)[O-])cc1)NC(C)=O | -10.0% | -26.2% |
| C[C@H](NC(=O)CC[C@H]1O[C@@H](n2ccc(=O)[nH]c2=O)[C@H](O)[C@@H]1O)C(=O)O | -1.3% | 1.5% |
| CC1(C)CC(=O)c2cc(-c3nc(-c4ccc(Cl)cc4)cs3)c(=O)n(-c3cccc(F)c3)c2C1 | -4.2% | -6.8% |
| CCC(C)NC(=O)CS(=O)Cc1nc(-c2ccccc2C)oc1C (stereo unspecified) | -11.2% | -23.8% |
| Cc1cc(C(=O)N/N=C/c2ccc(-c3cccc([N+](=O)[O-])c3)o2)n[nH]1 | -12.5% | i |
| COc1ccc2oc3cc(C)[n+]([O-])c(-c4ccc(C)cc4)c3c2c1 | -20.6% | -10.6% |
| Cc1ccccc1OCc1nnc(SCC(=O)Nc2ccc3nc(SCC(=O)Nc4ccccc4)sc3c2)n1C | -9.8% | -5.6% |
| O=C1CN(C(=O)c2ccc(S(=O)(=O)N3CCCCC3)cc2)C(c2ccc(F)cc2)c2cc(Cl)ccc2N1 (stereo unspecified) | -10.0% | -17.1% |
